Vaccinia Venus – inhibitors of vaccinia virus (Venus reporter); Vaccinia virus Venus reporter expression, fluorescence; Potency, µM (highest dose often 36.5 µM), inactives show at the top dose activity change, negative = inhibition, usual class: inhibitors; 330,000 tested, 0.46% active; AID 720580; active means well fitted inhibition curve with a large enough effect; inconclusive means small, poorly fitted or top-dose-only effect; inactive means no such curve, though single readings can be large or run the other way; tested in A549 cells; note: nearly all actives have a fitted effect of over 30% in size; inactives centre near -10
Vaccinia mCherry – vaccinia inhibition (mCherry reporter). 310,000 tested, 0.63% active. Potency, µM (series often up to 36.5 µM), for the others: top-dose activity change, negative = inhibition, usual class: inhibitors. Vaccinia virus mCherry reporter infection, fluorescence; about a quarter of the inactives have no number; active = well fitted inhibition curve with a large enough effect; inconclusive = small, poorly fitted or top-dose-only effect; inactive = no such curve, though single readings can be large or run the other way; tested in A549 cells; note: nearly all actives have a fitted effect of over 35% in size; inactives centre near -10
* = called active by the depositor; i = inactive; ? = inconclusive; . = not tested or not shown; [ ] = another dose, or the depositor's remark. % is set by controls: 0 for no effect and ±100 for the full control effect; potency is the fitted concentration of half-maximal effect. This is a random part of the collection; 0.87% or so of the library scored in one or more.

SMILES	Vaccinia Venus	Vaccinia mCherry
Cc1cc([N+](=O)[O-])ccc1NC(=O)Nc1ccc(F)cc1F	-16%	i
Cc1ccc(N2CC(C(=O)N3CCOCC3)CC2=O)cc1Cl (stereo not drawn)	-1%	-5%
C=CCNC(=O)NC(=S)c1ccccc1	-1%	i
O=S1(=O)N=C(N2CCOCC2)c2ccccc21	-30%	.
CCOP(=O)(OCC)c1nc(-c2cccc3ccccc23)oc1NCCc1ccc(OC)cc1	?	-22%
O=c1c2ccccc2n2c(-c3ccc(Cl)cc3)nnc2n1CCc1ccccc1	7%	-14%
COc1ccc(CCN2C(=O)CS/C2=N\NC(=O)c2ccc(C(C)(C)C)cc2)cc1OC	-28%	-27%
Cc1ccc(CCNC(=O)CN2C(=O)COc3ccc(S(=O)(=O)N4CCC(C)CC4)cc32)cc1	-15%	-16%
O=C(c1cc2cc([N+](=O)[O-])ccc2oc1=O)N1CCOCC1	-6%	-12%
CCOc1ccc(NC(=O)c2ccccc2NC(=O)CN2CCCCCC2)cc1	-4%	-12%
O=C(Nc1cccc(Br)c1)N1CCC(CN2CCCCC2)CC1	-3%	-15%
COc1cc(/C=C/C(=O)N(C)c2ccccc2C(=O)O)cc(OC)c1OC	-9%	-28%
COc1ccccc1NC(=O)NNC(=O)C(C)Oc1ccc2ccccc2c1 (stereo not drawn)	-6%	-2%
COc1ccccc1N1CCN(c2nnc(-c3ccc(F)cc3)c3ccccc23)CC1	-27%	.
COC(=O)c1cc(C(=O)Nc2nnc(CC(C)(C)C)s2)cc([N+](=O)[O-])c1	-5%	i

Complete entries from above. Screens in order: Vaccinia Venus, Vaccinia mCherry
`COC(=O)c1cc(C(=O)Nc2nnc(CC(C)(C)C)s2)cc([N+](=O)[O-])c1` as listed: -5%, i
`O=S1(=O)N=C(N2CCOCC2)c2ccccc21` as listed: -30%, .
`COc1ccccc1NC(=O)NNC(=O)C(C)Oc1ccc2ccccc2c1` (stereo not drawn) as listed: -6%, -2%
`COc1ccccc1N1CCN(c2nnc(-c3ccc(F)cc3)c3ccccc23)CC1` as listed: -27%, .
`CCOc1ccc(NC(=O)c2ccccc2NC(=O)CN2CCCCCC2)cc1` as listed: -4%, -12%

3 entries drawn at random from those above, as already listed:
SMILES	Vaccinia Venus	Vaccinia mCherry
CCOc1ccc(NC(=O)c2ccccc2NC(=O)CN2CCCCCC2)cc1	-4%	-12%
O=C(c1cc2cc([N+](=O)[O-])ccc2oc1=O)N1CCOCC1	-6%	-12%
O=C(Nc1cccc(Br)c1)N1CCC(CN2CCCCC2)CC1	-3%	-15%

Additional results:
SMILES	Vaccinia Venus	Vaccinia mCherry
COc1cccc(CC(=O)Nc2ccc(-c3nc4ccccc4s3)cc2Cl)c1	-18%	-15%
COc1ccc(-c2noc(CN(C(=O)c3cc(OC)c(OC)cc3OC)C(C)C)n2)cc1	-7%	-3%
CCOC(=O)c1[nH]c2ccccc2c1NC(=S)Nc1cc(C)ccc1C	-7%	7%
CCC1(c2ccc(F)cc2)NC(=O)N(CC(=O)N2CC(=O)Nc3ccccc32)C1=O (stereo not drawn)	-4%	-13%
CCOC(=O)C1=C(C(C)=O)C(c2cccnc2)C(C#N)=C(N)O1 (stereo not drawn)	-17%	-13%[1.46 µM]
Cc1cc(Cl)ccc1OCC(=O)N1CCN(c2ncccn2)CC1	-3%	-5%
Cn1c(=O)c2[nH]c(CNCc3ccccc3Cl)nc2n(C)c1=O	10%	-2%
Cc1c(C(C)C)c(=O)n(-c2ccc(S(=O)(=O)NC3CCCCC3)cc2)n1C	-9%	i
COc1cc(-c2noc(-c3ccc(NC4CCCC4)c([N+](=O)[O-])c3)n2)cc(OC)c1OC	3%	-11%
COCCCNS(=O)(=O)c1ccc(OC)c(Cl)c1Cl	-12%	i
Cc1ccc(OCc2nnc(SCc3ccc(C#N)cc3)n2-c2ccc(C)cc2)cc1	-29%	-30%
CCCc1ccc(OCc2ccc(C(=O)N3CCSCC3)o2)cc1	-12%	i
COc1cc(CC(=O)O)ccc1OCc1ccccc1	7%	-25%
CCOC(=O)c1c(NC(=O)CSc2nnc(C)s2)sc2c1CCN(C)C2	22%	.
Cc1ccc(NC(=O)c2cc(S(=O)(=O)Nc3ccc(C)cc3)cs2)cc1	-24%	-10%
Cc1ccc(CNC(=O)C2CC(c3ccccc3F)=NO2)cc1 (stereo not drawn)	-28%	-11%
CCc1ccccc1NC(=O)CSc1ncc2c(n1)-c1ccccc1N(Cc1ccc(C)cc1)S2(=O)=O	-23%	-24%
CCN1CCc2nc(N)sc2C1	-14%	-1%
CCCS(=O)(=O)c1c(S(=O)(=O)CCC)c2c(N)cccn2c1C(=O)OC	1%	i
Cc1cccc(Nc2ccccc2C(=O)NCc2ccco2)c1C	?	?
O=C(Nc1sc2c(c1C(=O)N1CCOCC1)CCCCC2)c1cccnc1	-14%	-4%
CN(CC(=O)NCCCc1ccccc1)Cc1ccc(Br)cc1	-9%	i
O=C1/C(=C\c2c(NCCOCCO)nc3ccccn3c2=O)SC(=S)N1Cc1ccco1	173%[activator]	i
COc1ccc(CCNC(=O)c2cccnc2)cc1	-13%	-3%
COc1ccc(C(=O)NNC2=NS(=O)(=O)c3ccccc32)cc1OC	2%	-12%
FC(F)Oc1ccc(NC(=S)NC2CCCCCCC2)cc1	-10%	-1%
O=C(Nc1ccccc1)NC1(C(=O)N2CCN(c3ncccn3)CC2)CCCCC1	-4%	-6%
COc1ccc(C(=O)Nc2ncnc3nc[nH]c23)cc1	-14%	-9%
O=C(c1cccs1)N1CCC(C(=O)N2CCN(Cc3ccc4c(c3)OCO4)CC2)CC1	5%	-15%
Cc1c(OC(C)C(=O)NCC2CCC(C(=O)O)CC2)ccc2c3c(c(=O)oc12)CCCC3 (stereo not drawn)	-9%	i
COc1ccc2cc(CN(Cc3cccnc3)S(=O)(=O)c3ccccc3)c(=O)[nH]c2c1	-23%	-18%
COc1ccc(NS(=O)(=O)c2ccc3c(c2)NC(=O)CO3)cc1	-14%	0%
COC(=O)c1ccc(N/C=C\C(=O)c2ccc3c(c2)OCO3)cc1	-1%	-3%
CCCCN1C(=O)C(CC(=O)NCc2cccc3ccccc23)CC(C(=O)N2CCCCCC2)=C1C (stereo not drawn)	-20%	-13%
CC(C)c1ccc(CC(=O)N2CCC2(C)C(=O)NCC(C)(C)C)cc1 (stereo not drawn)	-3%	i
Cc1ccc2nc(CSc3nnc(NC(=O)COc4ccccc4)s3)cc(=O)n2c1	-9%	-22%
COc1cc(NC(=O)CSc2ccc3c(c2)OCCO3)cc(OC)c1OC	-18%	.
CC1(C)CN(Cc2ccccc2)C(=O)[C@H]1CC(=O)Nc1ccccc1	-12%	-1%
O=C(CN1CCN(S(=O)(=O)/C=C/c2ccccc2)CC1)Nc1ccccc1N1CCOCC1	-11%	-14%
O=C(NCCCCC(NC(=O)c1ccc([N+](=O)[O-])cc1)C(=O)O)c1ccc([N+](=O)[O-])cc1 (stereo not drawn)	4%	.
Cc1cc(F)ccc1NC(=O)CCSc1nc(-c2ccco2)cc(C(F)(F)F)n1	-6%	-14%
CSc1cccc(N/C(=N/S(=O)(=O)c2ccccc2)NN)c1	0%	i
CCOC(=O)C1=CN(Cc2cccc(F)c2)S(=O)(=O)N(CC)C1c1ccccc1 (stereo not drawn)	-16%	?
CC1CCN(CCOc2ccccc2-c2ccccc2)CC1	-1%	-16%
N#C/C(=C\c1c[nH]c2ccccc12)C(N)=O	-15%	-8%

Quoted from the listing:
For Vaccinia mCherry, `Cc1cc(F)ccc1NC(=O)CCSc1nc(-c2ccco2)cc(C(F)(F)F)n1` has the entry -14%
For Vaccinia Venus, `CCOC(=O)C1=CN(Cc2cccc(F)c2)S(=O)(=O)N(CC)C1c1ccccc1` (stereo not drawn) has the entry -16%

(next part)
SMILES	Vaccinia Venus	Vaccinia mCherry
Cc1cccnc1CN1CCN(C(=O)CCc2nnc(CCc3ccccc3)o2)CC1	-20%	0%
C/C(=N/NC(=O)c1ccc(Br)o1)c1cccc(NC(=O)c2ccc(F)cc2)c1	-25%	-8%
CCc1nc2ccc(C(=O)NCCOc3ccc(OC)cc3)cn2c1N(CC)CCN(C)C	-3%	i
Cc1c(Cl)cccc1NC(=O)CC1NCCNC1=O (stereo not drawn)	-6%	-11%
COC(=O)C1=C(C)Nc2ncnn2C1c1ccccn1 (stereo not drawn)	-2%	-9%
CN(C(=O)CN1C(=O)NC(C)(CCc2ccccc2)C1=O)c1ccccc1 (stereo not drawn)	-14%	-5%
O=[N+]([O-])c1ccc(O)c(/C=N/Nc2nn[nH]n2)c1	-9%	i
CC(C)(C)SCCNC(=O)c1ccc(Cl)c(S(=O)(=O)N2CCOCC2)c1	-13%	i
COc1ccc(Cn2nnnc2CN2CCc3ccccc3C2)cc1	-1%	1%
COc1ccc(C(=O)N2CCCC(C)(C(=O)NS(=O)(=O)C3CC3)C2)c(OC)c1 (stereo not drawn)	1%	4%
O=C(CCNC(=O)c1ccco1)Nc1cccc(Br)c1	-7%	-18%
CCc1nc(N2CCC3(CC2)OCCO3)c2nnn(Cc3ccccc3Cl)c2n1	-21%	-1%
COc1cc2c(cc1OC)-c1cc3ccc4c(c3c[n+]1CC2)OCO4	11%	-12%
C[C@@H]1CN([C@@H](C)CO)C(=O)CCCn2cc(nn2)CO[C@H]1CN(C)S(=O)(=O)c1ccc2ccccc2c1	-19%	?
CC(OC(=O)Nc1ccccc1)C(=O)OC1CCCCC1 (stereo not drawn)	-17%	i
Cc1cccc(C)c1NC(=O)C1(N(C(=O)c2ccccn2)c2ccc(O)cc2)CCCCC1	-14%	?
CCOc1ccc(CCNC(=O)c2cccc(S(=O)(=O)N3CCN(C(C)=O)CC3)c2)cc1OCC	-15%	-2%
O=C(CSc1ncn[nH]1)Nc1ncc(C(F)(F)F)cc1Cl	8%	i
Oc1ccc(-c2n[nH]c(C(F)(F)F)c2-c2ccccc2)c(O)c1	?	?
COc1ccc(NS(=O)(=O)c2cccc(C(=O)N3CCN(c4ccccc4O)CC3)c2)cc1	-21%	-30%
Cc1cccc(Oc2cc(N)cc([N+](=O)[O-])c2)c1	-20%	-15%
COc1ccccc1-c1cc(C(=O)N2CCCC2)no1	-7%	i
O=C(COC(=O)COc1ccc(Cl)cc1Br)NC1CC1	4%	-7%
c1ccc(CNC2=NCCS2)cc1	-25%	.
COc1cc2c3nnc(-c4ccc(F)cc4)c-3cn(Cc3ccccc3F)c2cc1OC	?	-23%
COCCn1c(-c2ccccc2Cl)nc2c(c(=O)c3ccccc3n2C)c1=O	-4%	-15%
COc1ccc2c(c1)CC/C(=C/c1ccco1)C2=O	-9%	-13%
Brc1ccc2nc(-c3ccco3)c(Cc3ccccc3)n2c1	-7%	i
COC(=O)c1ccccc1NC(=O)CN(c1ccccc1OC)S(C)(=O)=O	-3%	0%
CCOc1ccc(C(C(=O)NC2CCCC2)N(CCCO)C(=O)c2ccc(-c3ccccc3)[nH]2)cc1 (stereo not drawn)	-25%	i
CCCc1c(C(=O)N/N=C(\C)c2ccccn2)nnn1-c1nonc1N	?	0.89µM*
Cc1ccc2nc(NC(=O)COC(=O)c3ccncc3)sc2c1	-2%	-5%
CC1CCC2(CC1)NC(=O)N(CC(=O)NC(=O)Nc1ccc3c(c1)OCCO3)C2=O (stereo not drawn)	1%	i
O=C(COC(=O)c1cc2ccccc2o1)c1ccccc1	-12%	.
CCOC(=O)c1c(NC(=O)CSc2nnc(Cc3csc(N)n3)n2C)sc(C)c1C	-11%	-23%
Cc1cccc(N2CCN(C(=O)C3CCCN(S(=O)(=O)c4c(C)noc4C)C3)CC2)c1C (stereo not drawn)	?	?
COc1ccc(OC)c(S(=O)(=O)Nc2cc3c(cc2N2CCCC2)n(C)c(=O)c(=O)n3C)c1	-1%	i
CC1=C(C(=O)OCCCCCl)C(c2cc3c(cc2Br)OCO3)NC(=O)N1 (stereo not drawn)	-13%	i
O=C(CSCc1c(F)cccc1F)Nc1ccccc1	-3%	i
COC(=O)[C@@H](NC(=O)N1CCC(Cc2ccccc2)CC1)C(C)C	-2%	i
Cc1ccc(S(=O)(=O)N2CCN(C(=O)CCC(=O)N3CCc4ccccc43)CC2)cc1	-12%	-3%
COC(=O)c1ccc(C2c3c(-c4ccccc4O)n[nH]c3C(=O)N2Cc2cccnc2)cc1 (stereo not drawn)	-6%	-5%
Cc1c(C=O)c2ccccc2n1Cc1ccc(F)cc1	-16%	-16%
O=c1[nH]c(-c2ccccc2)nc(CN2CCCCC2)c1O	3%	-11%
COC(=O)[C@]12CCCCC=C1N(Cc1ccc3c(c1)OCO3)C(=O)[C@H](CC(=O)NCc1cccs1)C2	-11%	-23%
CN(C)/C=C/C1=CC(=O)CC(C)(C)C1	6%	-7%
COc1cc(-c2onc3ccc(Br)cc23)cc(OC)c1OC	?	?
CCC(C(=O)OCC(=O)NC(=O)c1ccccc1OC)c1ccccc1 (stereo not drawn)	-5%	-16%
CCCn1c(C)cc(=O)c2cc(NC(=O)c3cnccn3)ccc21	-4%	-20%
COCCCNC(=O)C[C@@H]1C[C@@]2(C(=O)OC)CC(C)(C)CC=C2N(Cc2ccc3c(c2)OCO3)C1=O	3%	-25%
Cc1ccccc1C(=O)OCC(=O)N(C)c1c(N)n(Cc2ccccc2)c(=O)[nH]c1=O	-7%	-26%
COc1cc(NC(=O)c2cc3nc(-c4ccc(C)cc4)cc(C(F)(F)F)n3n2)cc(OC)c1OC	-10%	-27%
